Screening results: PubChem BioAssay, National Center for Advancing Translational Sciences (NCATS)
ERG-DNA inh – qHTS for Small Molecule Inhibitors of the ERG Ets/DNA interaction; Transcriptional regulator ERG (Homo sapiens), P11308; fluorescence polarization, His-ERG Ets domain / labelled DNA; Potency, µM (doses to about 76.9 µM), for inactives: at the top dose FP activity, negative = inhibition, actives largely listed as inhibitors; 0.028% of 370,000 active; AID 624246, 2012; active = well fitted inhibition curve with a large enough effect in the polarisation, with a control signal flat; inconclusive = small, poorly fitted or top-dose-only effect, or effect the other way, or a change in a side signal; inactive = no such curve, though single readings can be large or run the other way; the % refers to the polarisation;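 note: polarization taken with two DNA probes labelled with fluorescein and Texas red; potency is the fitted concentration of half-maximal effect; % of control where 0% means no effect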
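His-tagged ERG Ets domain (1 uM in the protein solution; 300mM KCl, 50mM Tris-HCl, 1mM EDTA, 1mM DTT, pH 7.5) received compound, then a probe mix of 5 nM fluorescein-DNA and 100nM Texas-615-DNA. Fluorescence polarization was read for both dyes.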
RGS4 inh – Inhibitors of Regulator of G Protein Signaling (RGS) 4: qHTS | Transcreener GDP fluorescence polarization, RGS4-accelerated GTP hydrolysis | 0.039% of 390,000 active | AID 504845, 2011 | Potency, µM (highest dose often 114 µM), inactives show at the top dose activity change, negative = inhibition, hits mostly inhibitors | Regulator of G-protein signaling 4 (Homo sapiens), P49798; note: potency is the fitted concentration of half-maximal effect; % is set by controls: 0 for no effect and ±100 for the full control effect; nearly all actives have a fitted effect of over 75% in size; some results filed as inactive show a strong effect at the top dose
Target sequence (P49798 whole entry, looked up): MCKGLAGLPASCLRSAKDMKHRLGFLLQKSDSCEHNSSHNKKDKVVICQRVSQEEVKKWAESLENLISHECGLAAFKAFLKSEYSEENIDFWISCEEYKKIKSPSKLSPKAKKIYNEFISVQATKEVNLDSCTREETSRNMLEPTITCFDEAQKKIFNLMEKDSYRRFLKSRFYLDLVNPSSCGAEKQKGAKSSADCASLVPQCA
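MLSMR compounds (23 nl, pin-transferred) preincubated 10 min at room temperature with a 500nM (2x) first reagent, then RGS4 at 900nM (2x) plus Transcreener GDP mix added; fluorescence polarization (620/688 nm) read before and after 90 min at 30 °C.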
POLK inh – qHTS for Inhibitors of Polymerase Kappa. purified Pol kappa, fluorescent DNA synthesis assay, 10 min. AID 588579, 2011. 0.53% of 400,000 active. Potency, µM (top dose mostly 107 µM), without a hit: at the highest dose activity, negative = inhibition, usual class: inhibitors; note: potency is the fitted concentration of half-maximal effect; % is set by controls: 0 for no effect and ±100 for the full control effect
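Pol kappa 10 nM + cpd, 15 min RT; start w/ substrate 50 nM final; fluorescence kinetic read, 0 and 10 min. Neg ctrl: buffer, no enzyme.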
Anesthetic bind – qHTS Assay for Identification of Novel General Anesthetics; apoferritin/1-aminoanthracene competitive binding, fluorescence; Potency, µM (titrated, usually from 77.5 µM), for inactives: at the top dose activity change, negative = displacement, most hits filed as inhibitors; 0.074% of 350,000 active; note: potency is the fitted concentration of half-maximal effect; % is set by controls: 0 for no effect and ±100 for the full control effect; nearly all actives have a fitted effect of over 20% in size
Target sequence (P02791 2-175 limits assumed): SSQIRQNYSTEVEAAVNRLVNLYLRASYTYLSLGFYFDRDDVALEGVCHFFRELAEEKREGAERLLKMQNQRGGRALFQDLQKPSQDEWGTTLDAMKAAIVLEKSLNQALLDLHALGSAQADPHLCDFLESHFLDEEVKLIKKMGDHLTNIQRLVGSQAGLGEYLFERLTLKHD
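Read-out: endpoint 1-AMA fluorescence, excitation 380 nm and emission 535 nm, after compounds sit 10 min at room temperature with 10 uM horse-spleen apoferritin in 50% saturated 1-AMA/PBS. Values come from four-parameter Hill fits.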
12-LOX inh – Primary qHTS assay for inhibitors of human arachidonate 12S-lipoxygenase (ALOX12): Round 2; Polyunsaturated fatty acid lipoxygenase ALOX12 (Homo sapiens), P18054; purified 12hLO, xylenol orange hydroperoxide absorbance; Potency, µM (series often up to 108 µM), for inactives: at the top dose activity change, negative = inhibition, most hits filed as inhibitors; 1.1% of 580,000 active; AID 1671190, 2021; note: potency is the fitted concentration of half-maximal effect; % is set by controls: 0 for no effect and ±100 for the full control effect
Target sequence (P18054 whole entry, looked up): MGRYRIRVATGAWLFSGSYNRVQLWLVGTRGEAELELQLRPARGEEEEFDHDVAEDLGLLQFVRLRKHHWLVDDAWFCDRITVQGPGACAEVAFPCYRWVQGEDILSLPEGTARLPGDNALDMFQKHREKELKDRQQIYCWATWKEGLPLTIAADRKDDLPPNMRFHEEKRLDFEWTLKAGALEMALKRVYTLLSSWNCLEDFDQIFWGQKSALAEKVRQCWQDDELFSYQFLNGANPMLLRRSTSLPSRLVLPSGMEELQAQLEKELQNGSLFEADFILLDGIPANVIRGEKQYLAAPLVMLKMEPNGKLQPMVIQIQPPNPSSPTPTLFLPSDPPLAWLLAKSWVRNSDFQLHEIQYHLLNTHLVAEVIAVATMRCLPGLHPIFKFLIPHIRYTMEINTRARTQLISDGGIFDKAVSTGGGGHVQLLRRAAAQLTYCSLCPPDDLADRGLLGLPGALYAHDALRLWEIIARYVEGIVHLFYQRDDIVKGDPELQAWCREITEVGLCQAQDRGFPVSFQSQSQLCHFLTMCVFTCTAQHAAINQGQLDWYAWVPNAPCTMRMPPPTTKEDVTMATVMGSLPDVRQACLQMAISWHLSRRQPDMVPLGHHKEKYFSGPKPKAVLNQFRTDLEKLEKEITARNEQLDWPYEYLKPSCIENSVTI
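Purified human 12hLO at 150 nM in 25 mM Hepes, 0.01% Triton X-100, pH 7.0, preincubated 15 min at room temperature with compound. Reaction started with 40 uM arachidonic acid, 30 min at room temperature. Hydroperoxide measured by Fe-xylenol orange, 573/405 nm absorbance ratio.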
LDHA inh – qHTS assay for inhibitors of human lactate dehydrogenase. L-lactate dehydrogenase A chain (Homo sapiens), P00338. purified LDHA, NADH/diaphorase-resazurin fluorescence; stronger effect = lower value. activity change, % (values are at about 110 or 230 µM). 0.15% of 480,000 active; in the data active = activity change below about -30%; inconclusive = mostly about -25% to -30%;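 note: plate controls were DMSO wells for no effect and wells without enzyme for full effect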
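Human LDH5 at 2 nM final in Tris HCl pH 7.4 with 0.06 mM NADH and 0.2 mM pyruvate, reacted 5 minutes at room temperature. Remaining NADH coupled via diaphorase/resazurin; resorufin fluorescence read at 0 and 20 minutes, normalized to enzyme-free and DMSO wells.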
Numbers without * were called inactive; ? = inconclusive; nt = not tested or not shown; & = joins results of further samples; [ ] = dose if it differs, or a comment. Unless noted, calls come from the whole dose curve; as a rule, active = well fitted curve in the direction sought with a large enough effect; inconclusive = small, poorly fitted or top-dose-only effect, or another doubt; inactive = no such curve, though single readings can be large; an effect the other way counts as inactive or inconclusive. These rows are one share of the data; the hit share may differ from the screen's.

Abbreviations: A = ERG-DNA inh; B = RGS4 inh; C = POLK inh; D = Anesthetic bind; E = 12-LOX inh; F = LDHA inh
CCn1nc(C(=O)NNS(=O)(=O)c2cc(/C=C/C(=O)O)cc(OC)c2OC)c2ccccc2c1=O
  A = 0%	B = -26%	C = -4%	D = nt	E = 1%	F = 5

CCOc1cc(/C=C(\C#N)C(=O)Nc2ccccc2C(=O)O)ccc1OC(=O)c1ccc(C)cc1
  A = 0%	B = -13%	C = 10%	D = -4%	E = ?	F = -4

Cc1cccc(C(C)C)c1NC(=O)Cc1ccc(S(=O)(=O)N2CCOCC2)s1
  A = 5%	B = -16%	C = -6%	D = nt	E = -12%	F = -3

O=C(c1cc2ccccc2oc1=O)N(Cc1ccc2c(c1)OCO2)Cc1ccco1
  A = -6%	B = 7%	C = -16%	D = ?	E = 0%	F = 2

O=C(NCc1ccco1)c1ccc2ccccc2n1
  A = -7%	B = -14%	C = 5%	D = -18%	E = -21%	F = -3

O=C(Nc1cccc(-c2nc3ccccc3o2)c1)c1cccnc1
  A = 1%	B = -23%	C = 0%	D = -14%	E = -16%&-6%	F = 4&-8

O=C(N/N=C/c1ccc(OC(=O)c2cccs2)cc1)c1cccc(F)c1
  A = -1%	B = -3%	C = -24%	D = -5%	E = 2%	F = -13

COc1ccccc1C1/C(=C(/O)c2ccccc2)C(=O)C(=O)N1CC(C)O (stereo not given)
  A = 1%	B = 11%	C = -7%	D = -11%	E = 3.5µM*	F = -1

COc1cccc2cc(-c3nc4ccccc4[nH]3)c(=O)oc12
  A = -1%	B = 9%	C = -14%	D = 105%[activator]	E = 0%&23%	F = 1&6

CCOC(=O)[C@@H](C)N(Cc1ccc(OC)cc1)S(=O)(=O)N(Cc1ccccc1)[C@H](C(=O)OC)C(C)C
  A = -2%	B = 16%	C = -9%&-11%	D = nt	E = 8%	F = 1

Cc1ccc(-n2nc(C)c(C(=O)O)c2-n2cccc2)cc1
  A = 1%	B = -17%	C = -33%	D = -6%	E = -15%	F = -1

NS(=O)(=O)c1ccc(CNC(=O)c2cc(=O)c3cc(Cl)ccc3o2)cc1
  A = -2%	B = 7%	C = -4%	D = -2%	E = 8%	F = -3

COc1ccc(N(C(C)=O)S(=O)(=O)c2cccc3cccnc23)cc1
  A = -6%	B = 0%	C = -11%	D = 0%	E = -4%	F = -2

CCC(C)N1CCCCC1C(=O)Nc1c(C)cc(C)cc1C (stereo not given)
  A = -20%	B = 3%	C = -1%	D = -9%	E = -23%	F = 3

O=S1(=O)C=C(Sc2nnc(-c3ccccc3)o2)c2ccccc21
  A = 1%	B = ?	C = -10%	D = ?	E = nt	F = -12

CC(C)(C)C(=O)NC(=S)NNC(=O)c1ccc(Cl)cc1Cl
  A = -7%	B = -11%	C = -21%	D = -6%	E = ?	F = -8

Cc1nc2cc(NC(=O)NCc3ccc4c(c3)OCO4)ccc2o1
  A = nt	B = 2%	C = -4%	D = -10%	E = -35%	F = 3

Cc1cccc(/C=C2/Sc3ccc(C(=O)N4CCOCC4)cc3NC2=O)c1
  A = 5%	B = -25%	C = 8%	D = 2%	E = -13%	F = 1

COc1ccc2cc3cc(C(=O)NCCN4CCc5ccccc5C4)sc3nc2c1
  A = 0%	B = 28%	C = -6%	D = -4%	E = -24%	F = -1

COc1ccc(-c2cc3ccccc3oc2=O)cc1NC(=S)NC(=O)c1ccc2c(c1)OCCO2
  A = 17%	B = -70%	C = 17%	D = -6%	E = -14%	F = -3

Cc1cc2c(cc1S(=O)(=O)N(C)c1ccccc1)NC(=O)CO2
  A = 9%	B = 14%	C = 7%	D = -14%	E = 0%	F = -3

O=C(Nc1ccccc1)C1CCCCN1S(=O)(=O)c1ccccc1 (stereo not given)
  A = -3%	B = 7%	C = -4%	D = -8%	E = -10%	F = -10

COc1ccccc1OCc1nnc(SCC(=O)Nc2ccc(C)cc2)n1C
  A = -2%	B = 21%	C = 2%	D = -21%	E = 2%	F = -5

COc1ccccc1C(OC(=O)c1cccs1)C(=O)NCc1ccco1 (stereo not given)
  A = -3%	B = ?	C = -7%	D = ?	E = -19%	F = 8

COc1ccccc1OCCNC(=O)Cc1ccc(S(=O)(=O)N2CCOCC2)s1
  A = -1%	B = 5%	C = -13%	D = nt	E = -1%	F = -3

c1ccc(-c2nc(NCc3ccco3)c3ccccc3n2)cc1
  A = 10%	B = -29%	C = 2%	D = -14%	E = ?	F = 0

N#Cc1c(SCC(=O)Nc2nncs2)sc2c(O)cc(=O)[nH]c12
  A = 5%	B = ?	C = 8.9µM*	D = -4%	E = -19%	F = -23

Cc1cc(=O)oc2cc(OCCc3ccccc3)ccc12
  A = 1%	B = 11%	C = -5%	D = -8%	E = ?	F = -2

COc1cccc2c1CCc1c-2nc2ccccc2c1C(=O)O
  A = 5%	B = -3%	C = 4%	D = 6%	E = -4%	F = -7

CCOC(=O)N/N=C/C=C/c1ccccc1[N+](=O)[O-]
  A = -2%	B = ?	C = 4%	D = -5%	E = 7%	F = -10

CN=C1S/C(=C\c2ccc(Sc3ccc(Cl)cc3)o2)C(=O)N1C
  A = nt	B = nt	C = nt	D = -14%	E = nt	F = nt

COc1cc(C(=O)N/N=C/c2ccc(OC(=O)c3cccc(C)c3)cc2)ccc1O
  A = -2%	B = 12%	C = -24%	D = ?	E = ?	F = -7

Cc1ccc(-c2c(NCCc3ccccc3)c(=O)c2=O)cc1
  A = 13%	B = -2%	C = -14%	D = -6%	E = 8%	F = -1

C=CCn1c(SCc2ccc(Br)cc2F)nc2cc(C(=O)O)ccc2c1=O
  A = 0%	B = -8%	C = -2%	D = -11%	E = ?	F = 3

Cc1cc2ncc(-c3ncc(C(F)(F)F)cc3Cl)cn2n1
  A = -7%	B = 31%	C = 0%	D = -10%	E = 14%	F = -10

Cc1nc2cc(NC(=O)NCc3ccco3)ccc2o1
  A = nt	B = 21%	C = -7%	D = -5%	E = 13%	F = 5

CCOc1ccc(C(=O)NCc2ccco2)cc1OC
  A = -2%	B = 2%	C = 4%	D = -8%	E = 7%	F = 1

CCc1ccc2nc(N(CCN(C)C)C(=O)/C=C/c3cccs3)sc2c1
  A = -4%	B = -9%	C = 1%	D = -7%	E = nt	F = -2

NC(=O)C(c1ccc(Cl)cc1)c1ccc(Sc2ccccc2)nn1 (stereo not given)
  A = -5%	B = 0%	C = -9%	D = ?	E = ?	F = -3

CCOCCOC(=O)c1ccc(NC(=O)C2COc3ccccc3O2)cc1 (stereo not given)
  A = 1%	B = 14%	C = -23%	D = -23%	E = 125%[activator]	F = -3

CCN(CC(=O)Nc1ccc(NC(C)=O)cc1)C(=O)c1cccc(-n2cccc2)c1
  A = -14%	B = 13%	C = -42%	D = nt	E = nt	F = -6

CS(=O)(=O)c1ccc(C(=O)OCC(=O)NC(=O)Cc2ccccc2)cc1
  A = 0%	B = 4%	C = 2%	D = nt	E = -1%	F = -11

Cc1ccc(NC(=O)c2ccc(N/N=C/c3cccc(O)c3)c([N+](=O)[O-])c2)cc1
  A = 7%	B = -13%[11.4 µM]	C = -8%	D = -8%	E = -29%	F = -7

CCN(c1ccccc1)S(=O)(=O)c1ccc(Cl)c(NC(=O)CSc2nnc(C)s2)c1
  A = -2%	B = 13%	C = -6%	D = 37%[activator]	E = -2%	F = -10

COc1cccc2cc(C(=O)C3=C(O)C(=O)N(c4cc(C)on4)C3c3cccs3)oc12 (stereo not given)
  A = 24%	B = -33%	C = -21%	D = ?	E = ?	F = -3

C=CCn1c(CCNC(=O)c2cccs2)nnc1SCC(=O)Nc1cccc(Cl)c1C
  A = -4%	B = 26%	C = -9%	D = -13%	E = -23%	F = 0

COc1cc2c(cc1OC)-c1cc(N3CCCc4ccccc43)nc(=O)n1CC2
  A = nt	B = 14%	C = -6%	D = -6%	E = ?	F = -5

CCCCC(=O)Nc1nc2c(s1)COc1ccccc1-2
  A = -4%	B = 14%	C = -3%	D = ?	E = nt	F = -4

O=c1c2ccccc2nc2c3ccccc3c(NCc3cccnc3)nn12
  A = 1%	B = 33%	C = -12%	D = -4%	E = 4%	F = -5

CC(C)SCC(=O)Nc1ncc2c(n1)-c1ccccc1CC2
  A = -4%	B = ?	C = -21%	D = 2%	E = ?	F = 32

Following part:
Abbreviations: A = ERG-DNA inh; B = RGS4 inh; C = POLK inh; D = Anesthetic bind; E = 12-LOX inh; F = LDHA inh
Cc1cccc(/C=C2/S/C(=N/N=C3\CC4CCC3(C)C4(C)C)NC2=O)c1 (stereo not given)
  A = 0%	B = ?	C = -11%	D = -22%	E = 0%	F = -2

CC(C)CCN1CCN(C/C=C/c2ccco2)CC1CCO (stereo not given)
  A = 10%	B = 14%	C = -4%	D = -5%	E = -6%	F = -1

COc1ccc2oc(-c3ccccc3[N+](=O)[O-])cc(=O)c2c1
  A = -1%	B = 18%	C = -5%	D = -17%	E = 3%	F = -12

COc1ccc(-c2nc3cnc(Oc4ccccc4)nc3n(Cc3cccs3)c2=O)cc1
  A = nt	B = nt	C = 1%[60.1 µM]	D = nt	E = 90%[activator]	F = nt

COC(=O)[C@H](C(C)C)N(Cc1ccccc1)S(=O)(=O)CCNC1CCCC1
  A = -11%	B = -19%	C = 12%	D = nt	E = -14%	F = 0

O=C(N/N=C/c1ccc([N+](=O)[O-])cc1)c1ccc(NS(=O)(=O)c2cccs2)cc1
  A = -9%	B = -5%	C = -2%	D = nt	E = -29%	F = -4

COc1ccccc1CNc1ccnc(-c2ccccc2C(F)(F)F)n1
  A = nt	B = nt	C = -8%[60.1 µM]	D = -8%	E = ?	F = nt

Whole records from above. Order of screens: ERG-DNA inh | RGS4 inh | POLK inh | Anesthetic bind | 12-LOX inh | LDHA inh
Cc1cccc(C(C)C)c1NC(=O)Cc1ccc(S(=O)(=O)N2CCOCC2)s1 across the screens: 5% | -16% | -6% | nt | -12% | -3
CCOc1ccc(C(=O)NCc2ccco2)cc1OC across the screens: -2% | 2% | 4% | -8% | 7% | 1
